Screening results (PubChem)
Rce1 inh: inhibitors of yeast Ras-converting enzyme; yeast membranes, quenched prenylated peptide cleavage fluorescence; calls only; hit rate 0.27% among 290,000;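 active = fall in fluorescence gain of 50% or more versus controls, with final raw signal at or below 3038400; inconclusive = same 50% fall but final raw signal above 3038400; inactive = fall in fluorescence gain under 50%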;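 note: plate controls were neutral control wells for no effect and wells lacking membranes for full effect; tested at 10 µM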
Target sequence (Q03530 whole entry, looked up): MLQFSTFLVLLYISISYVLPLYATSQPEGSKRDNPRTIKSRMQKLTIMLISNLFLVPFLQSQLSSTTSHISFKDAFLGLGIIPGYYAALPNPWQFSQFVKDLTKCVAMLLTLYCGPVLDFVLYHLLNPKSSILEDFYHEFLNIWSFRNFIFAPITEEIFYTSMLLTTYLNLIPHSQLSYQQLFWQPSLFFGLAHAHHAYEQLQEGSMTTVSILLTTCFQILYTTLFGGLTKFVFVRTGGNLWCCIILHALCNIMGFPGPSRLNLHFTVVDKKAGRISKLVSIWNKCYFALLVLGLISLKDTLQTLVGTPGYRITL
HIV Env fusion: blocks HIV Env-driven cell-cell fusion; HeLa-JRFL Env/CEM21 cell fusion, luciferase; inhibition, % at 12.3 µM; hit rate 1.1% among 360,000; AID 651610;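 active = mean replicate inhibition score of at least 50 and every replicate individually at or above 50; inconclusive = only one of the two criteria met; inactive = mean below 50 and not all replicates reaching 50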;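 note: 0% = plate neutral controls and 100% = maraviroc near 300 nM; one replicate is shown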
eIF4H inh: inhibitors of RNA binding by human eIF4H. Q15056. eIF4H fluorescence polarization binding assay. inhibition, % at 35 µM. hit rate 0.94% among 290,000. AID 2012;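 active = 50% or more with normal probe brightness, or confirmed in later tests; inconclusive = above 50% with abnormal brightness, or retests that disagree; inactive = below 50% or failed in later tests; about a fifth of its hits are not listed in these tables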;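 note: calls also rest on retests at 20 µM and on dose response follow-up; 0% = protein and probe with vehicle and 100% = probe without protein; strong numbers were not always called active; many hits fall short of the cut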
UUG fidelity: alters start codon recognition fidelity in yeast; activity score, % at 18.7 µM; hit rate 0.13% among 350,000; AID 602363; S. cerevisiae UUG-firefly luciferase reporter, luminescence/redox ratio;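 active = replicate mean at a twofold rise or more, about +100% in these data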;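 note: firefly luciferase made from a UUG start codon reports start codon fidelity; reporter light over untreated wells divided by growth signal over untreated wells; some hits fall short of that in this replicate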
MT1-MMP act inh: MT1-MMP (human) activation inhibition; P50281; HT1080 RFP-PRO-GFP cells, GFP/RFP ratio fluorescence, overnight; percent of plate control window, DMSO zero; GFP/RFP ratio change, % at 20 µM; hit rate 0.061% among 360,000; AID 651647;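 active = GFP/RFP ratio change of at least 30% with cell ATP level not reduced by more than half and red fluorescence within 50% of control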; note: strong numbers were not always called active
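Test system: HT1080 cells expressing an RFP-PRO-GFP fluorescent reporter construct / Compound dosing: single-point 20 µM compound, 1% DMSO / Schedule: cells overnight before dosing, compound overnight, 37 °C, 5% CO2 / Evaluation: GFP/RFP fluorescence ratio / Control set: DMSO and RFP-L50D-GFP cell wells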
CSC inhib: blocks cancer stem cells. cancer stem cell-like cells viability, luminescence. inhibition, % at 7.5 µM. hit rate 1.1% among 300,000. AID 2717;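 active = mean at 75% or more and at least half the replicates too; inconclusive = mean and replicates disagree; tested in HMLE shEcad cells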;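 note: 0% = median of negative and 100% = median of positive control wells; the first replicate is given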
PABP polyA inh: blocks human PABP binding to poly(A) RNA; hit rate 1% among 290,000; inhibition, % at 35 µM; P11940; fluorescence polarization;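 active = 50% or more with normal probe brightness, or confirmed in later tests; inconclusive = above 50% with abnormal brightness, or retests that disagree; inactive = below 50% or failed in later tests; about a fifth of its hits are not listed in these tables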;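 note: calls also rest on retests at 20 µM and on dose response follow-up; controls were probe without protein and protein plus probe with vehicle; some compounds called inactive have numbers as strong as hits; many hits fall short of the cut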
Target sequence (P11940 whole entry, looked up): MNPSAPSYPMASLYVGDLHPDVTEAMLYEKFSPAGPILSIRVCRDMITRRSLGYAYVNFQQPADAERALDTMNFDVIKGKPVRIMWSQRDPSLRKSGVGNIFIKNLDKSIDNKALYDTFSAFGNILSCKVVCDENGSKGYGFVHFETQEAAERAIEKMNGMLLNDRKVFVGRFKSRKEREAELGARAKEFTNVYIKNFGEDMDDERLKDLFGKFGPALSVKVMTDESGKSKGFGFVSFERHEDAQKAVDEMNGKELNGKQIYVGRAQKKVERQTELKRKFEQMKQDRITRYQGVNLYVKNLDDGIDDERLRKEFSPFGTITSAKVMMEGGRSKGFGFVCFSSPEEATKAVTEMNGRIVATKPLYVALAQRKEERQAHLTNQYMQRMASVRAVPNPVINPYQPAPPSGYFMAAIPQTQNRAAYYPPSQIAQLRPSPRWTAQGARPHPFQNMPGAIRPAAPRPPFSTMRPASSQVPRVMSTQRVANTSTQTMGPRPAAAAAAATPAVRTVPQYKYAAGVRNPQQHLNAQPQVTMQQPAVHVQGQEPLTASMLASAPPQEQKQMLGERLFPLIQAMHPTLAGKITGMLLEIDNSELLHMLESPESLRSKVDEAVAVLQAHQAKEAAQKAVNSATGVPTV
MT1-MMP act inh RFP: further read-out of MT1-MMP act inh, marked with its call; RFP signal change, %; measured here: RFP expression control read;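 0 = vehicle wells; hits needed this value within 50% of zero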
Active calls of the source: *; i = inactive; u = inconclusive; x = no result given; & = joins results of further samples. The list is partial. The share of hits here may be higher or lower than overall.

SMILES	Rce1 inh	HIV Env fusion	eIF4H inh	UUG fidelity	MT1-MMP act inh	MT1-MMP act inh RFP	CSC inhib	PABP polyA inh
Clc1cccc(OCc2nc(-c3ccncc3)no2)c1	i	-6.8	6.7	x	1.1	-0.1	17.7	-4.0
O=S(=O)(Nc1nc2ccccc2nc1Nc1cccc(S(=O)(=O)N2CCCCC2)c1)c1ccccc1	i	76.6*	38.6	7.7	-27.6	-34.3	124.1*	16.1
COc1ccc(/C=N/NC(=O)c2ccco2)cc1COc1ccc(F)cc1	i	-1.3	-1.9	-15.7	5.0	0.3	9.7	-6.9
O=C(NCc1ccc(F)cc1)c1ccc(S(=O)(=O)Nc2cccc(C(F)(F)F)c2)cc1	i	24.3	4.4	14.3	9.3	-8.8	18.1	7.5
Clc1ccc(-c2cc3nc(NCc4cccc(Cl)c4)ccn3n2)cc1	x	-152.1	x	2.1	0.5	-6.3	x	x
CCSc1cc(C2C(C#N)=C(N)OC(C)=C2C(=O)OC)c(C)o1 (centres undefined)	i	1.5	20.6	-13.1	-4.0	2.0	-5.8	34.1
COc1ccc(NC(=O)Nc2cnccn2)c(OC)c1	i	56.6*	-5.4	-12.9	-4.1	1.5	-1.6	-1.3
O=C(NC1CCN(Cc2ccccc2)CC1)C1CCCN(c2nnc(-n3cccc3)s2)C1 (centres undefined)	i	-49.2	-5.0	3.3	0.4	-0.3	-13.1	-10.1
Cc1onc(C(=O)N2CCN(c3ccccc3F)CC2)c1-c1ccccc1Cl	i	5.8	12.9	x	1.0	-0.6	-2.9	24.7
Cc1cc(NC(=O)c2cc(-c3ccc(OC(C)C)cc3)nc3ccccc23)no1	i	-0.2	-9.8	-19.0	-5.0	-4.2	12.2	0.5
CC(=O)N1c2ccc(Cl)cc2C2OCCC2C1c1ccco1 (centres undefined)	i	-5.4	-4.1	x	0.2	-0.5	-5.6	-2.1
COC(=O)c1cc(Cn2nc(C(=O)O)c3ccccc3c2=O)oc1C	i	-8.2	1.0	-8.8	0.0	3.7	1.9	6.7
O=c1c2ccc(Cl)cc2[nH]c(=S)n1Cc1cccnc1	i	-51.5	-12.0	-19.8	-9.1	-2.1	x	1.8
CC(C(=O)N1CCN(C=O)CC1)N1C(=O)c2ccccc2C1=O (centres undefined)	i	x	-6.6	-27.6	3.6	1.8	-0.4	-0.3
Cc1cc(=O)oc2cc(NC(=O)c3cc([N+](=O)[O-])ccc3N3CCOCC3)ccc12	i	13.5	2.9	x	-3.1	2.2	x	3.3
C=CCNC(=O)Nc1ccc(OCC)cc1	i	x	-3.3	-25.1	4.3	0.7	-4.4	10.7
CC(Sc1ccc2ccccc2n1)C(=O)O (centres undefined)	i	-3.6&-44.9	0.4&-2.3	-2.0	10.5	17.0	x	-4.0&-3.4
O=C(CSc1n[nH]c(=O)[nH]c1=O)Nc1ccc(C(=O)O)cc1	i	7.8	-6.0	x	2.9	2.2	x	-2.8
Cc1ccc(C(=O)COC(=O)CCN2C(=O)C3C4CC(C(Br)C4Br)C3C2=O)cc1 (centres undefined)	i	x	3.0	6.2	1.4	15.6	-8.6	-0.5
O=C(CSc1nccc(-c2cccs2)n1)Nc1ccc(F)c(Cl)c1	i	-6.9	-0.6	x	-0.3	3.3	13.8	1.9
COc1ccc(S(=O)(=O)N2CCC(N3CCN(c4ccccc4)CC3)CC2)cc1	i	x	-5.0	x	x	x	16.0	-1.0
O=C1CC(c2cccc([N+](=O)[O-])c2)c2ccc3ccccc3c2N1 (centres undefined)	i	93.1*	0.9	-9.5	2.9	-10.4	14.4	-2.5
COc1ccccc1Oc1ccc2c(c1)C(=O)N(CC(=O)O)C2=O	i	x	-4.4	4.9	1.6	0.5	-8.8	3.3
Cc1ccc(CNC(=O)NCc2ccccc2)cc1	x	10.8	-9.5	x	1.9	5.9	-19.2	-5.0
Cc1ccc(NC(=O)Nc2cccc(C)n2)cc1	i	-72.1	1.5	-11.9	-2.6	0.1	-15.4	-8.7
O=C(NCCc1ccccc1F)C(=O)Nc1nccs1	i	-38.4	6.1	-9.7	3.9	3.7	-12.1	-3.6
CCCCCCCCC/C(=N\O)c1ccccn1	i	-92.3	1.0	-71.1	-13.2	-20.7	1.7	-9.9
Cc1ccc2c(c1)N=C(c1ccc(F)cc1)CO2	i	x	-6.5	x	4.7	-1.4	-0.4	2.2
COC(=O)C1=NN(c2ccccc2)C2(S1)S/C(=C\c1ccccc1)C(=O)N2c1ccccc1 (centres undefined)	i	x	3.7	-16.4	-3.4	-5.1	0.7	-8.8
NC(=S)NN=C1CCCCC12CCCC2	x	-2.2	x	-24.9	7.0	-1.9	x	x

Some of the entries above, reformatted:
molecule | Rce1 inh | HIV Env fusion | eIF4H inh | UUG fidelity | MT1-MMP act inh | MT1-MMP act inh RFP | CSC inhib | PABP polyA inh
O=c1c2ccc(Cl)cc2[nH]c(=S)n1Cc1cccnc1 | i | -51.5 | -12.0 | -19.8 | -9.1 | -2.1 | x | 1.8
CC(C(=O)N1CCN(C=O)CC1)N1C(=O)c2ccccc2C1=O (centres undefined) | i | x | -6.6 | -27.6 | 3.6 | 1.8 | -0.4 | -0.3
Cc1cc(=O)oc2cc(NC(=O)c3cc([N+](=O)[O-])ccc3N3CCOCC3)ccc12 | i | 13.5 | 2.9 | x | -3.1 | 2.2 | x | 3.3

Following part
SMILES	Rce1 inh	HIV Env fusion	eIF4H inh	UUG fidelity	MT1-MMP act inh	MT1-MMP act inh RFP	CSC inhib	PABP polyA inh
COc1ccc(N2C(=O)c3ccccc3C2=O)cc1	i	-8.7	6.5	-17.9	9.9	-7.5	1.9	1.4
COc1ccc(/C(O)=C2\C(=O)C(=O)N(Cc3ccco3)C2c2cc(OC)ccc2OC)cc1 (centres undefined)	i	x	5.1	x	3.5	-3.3	-4.3	0.1
O=S(=O)(c1ccc2[nH]ccc2c1)N1CCCCCC1	i	-7.2	1.1	-6.8	-1.9	2.4	-4.7	0.9
O=C(Nc1cccc(Cl)c1Cl)c1ccncc1	i	-162.8	3.9	10.8	-15.3	-6.0	0.6	-5.6
Nc1nc2c(ncn2[C@@H]2O[C@H](CNC(=O)[C@H](N)C3CCCCC3)[C@@H](O)[C@H]2O)c(=O)[nH]1	x	19.5	x	-11.1	0.9	0.3	x	x
CC1=Nc2ccccc2/C1=C/c1sc(=O)n(CC(=O)N2CCCC2)c1O	i	-42.9	-7.5	-6.9	-6.0	-6.7	-2.9	-5.1
CC1Cc2cc(/C(O)=C3/C(=O)C(=O)N(CCN4CCOCC4)C3c3cccc(O)c3)ccc2O1 (centres undefined)	i	-57.2	-5.6	-2.9	-2.5	2.8	-7.6	-3.0
Cc1ccc(NC(=O)c2cc(-c3ccco3)on2)cc1C	i	-16.6	0.9	-9.2	-6.3	2.0	-1.1	-2.1
Cn1cc(CCNC(=O)C2CCC(=O)N(CCc3ccc(Cl)cc3)C2)cn1 (centres undefined)	i	-9.6	2.0	-12.0	-1.2	3.1	-14.9	-2.6
Cc1nn(-c2ccc(Cl)cc2)c(Cl)c1/C=N/NC(=O)c1ccc(NS(=O)(=O)c2cccs2)cc1	i	-5.6	x	-25.4	1.0	-10.5	31.9	x
C=CCn1c(=O)/c(=C2/Sc3cc(OC)ccc3N2C)s/c1=C1\C(=O)N(CC)C(=S)N1C	i	x	10.2	x	x	x	7.7	-6.3
COc1ccc(NC(C)=O)cc1NC(=O)CN1CCN(S(=O)(=O)c2ccc(C(C)C)cc2)CC1	i	x	-1.8	-16.7	-0.2	4.0	-10.3	7.5
COc1ccc(C)cc1NC(=O)CCN1CCN(c2ccccc2)CC1	i	17.4	-3.3	x	-3.1	-4.2	-8.8	-1.4
CCC(C)C(=O)N1CCc2cc(-c3csc(N)n3)ccc21 (centres undefined)	i	x	-6.8	-28.0	-11.6	-7.7	-19.4	3.3
COc1ccc(NC(=O)c2cc([N+](=O)[O-])ccc2NC(=O)CNCc2ccccn2)c(OC)c1	i	-18.3	0.0	-33.1	-8.4	-4.1	-10.9	-3.3
O=C(/C=C/c1ccc2c(c1)OCO2)Nc1ccc(Cl)cn1	i	-491.7	-3.0	x	2.7	-5.2	88.2*	-5.8
CCN1C(=O)[C@H]2[C@@H](c3ccc(-c4ccccc4)cc3)N3CCCC[C@@]3(C(=O)OC)[C@H]2C1=O	i	u	x	-12.5	-3.5	-5.9	10.6	x
Cc1cc(-c2ccc(C)c(S(=O)(=O)NCCCN(Cc3ccccc3)C(C)C)c2)on1	i	-4.9	-6.8	-23.3	2.1	0.0	0.6	-2.6
O=C(C1=C[C@@H](c2coc3ccccc3c2=O)C[C@@H](OCc2ccc(CO)cc2)O1)N1CCCCCCC1	i	x	5.2	-9.6	4.2	3.2	-7.6	1.6
Fc1ccc(Nc2c3c(nc4ccccc24)CCC3)cc1	i	4.6	-4.1	-3.4	4.5	-8.4	x	13.3
O=C(c1ccc(Cl)cc1)c1cn[nH]c1-c1ccccc1O	i	-108.3	1.0	x	-0.3	-4.9	-2.2	-0.9
O=c1c(Cc2ccccc2)c(O)nc2n1CCCS2	i	x	-4.5	-17.1	-0.2	0.6	-9.5	-3.4
NC(=O)CC(NC(=O)Cc1cccc2ccccc12)c1ccc(NCC2CC2)c([N+](=O)[O-])c1 (centres undefined)	i	-5.3	-9.7	-13.9	4.1	2.4	5.4	-8.0
CCC(=O)c1c[nH]c(C(=O)N2CCOCC2)c1	i	-20.5	-4.3	-12.9	-0.3	-4.4	-7.1	-0.3
CCOc1ccc(-c2nnc(SCc3nnc(-c4ccccc4)o3)n2-c2ccccc2F)cc1	i	x	-1.7	-18.3	-2.9	-9.1	-1.9	1.3
COc1cc(S(=O)(=O)n2cnc(C)c2)ccc1Br	i	-15.3	-3.2	-10.4	2.9	5.9	-6.4	7.1
CCCn1nc([N+](=O)[O-])c(C(C#N)c2nc3ccccc3s2)c(Cl)c1=O (centres undefined)	i	28.5	-12.9	-24.9	21.2	-28.3	98.3*	20.1
O=C(CN1CCCCCC1)Nc1cc(C(F)(F)F)ccc1Cl	i	6.7	2.4	-11.3	-3.6	1.9	11.2	15.2
O=C(N/N=C/c1cccn1-c1ccc(O)cc1)c1cccc2ccccc12	i	14.0	-10.7	-14.9	-2.3	-2.0	10.8	-1.9
CN(C)S(=O)(=O)c1cccc(NC(=O)COC(=O)COc2ccccc2[N+](=O)[O-])c1	i	3.8	-5.6	x	-4.6	1.6	-9.2	-1.2
CCOc1ccc(NC(=O)N(CC(C)C)CC(C)C)cc1	i	-42.8	7.0	-24.9	-0.2	0.1	-5.0	-9.1
CN1CCN(c2nnc(-c3ccc(Cl)cc3)c3ccccc23)CC1	i	25.5	-7.2	3.3	-2.9	-0.5	-13.2	3.8
O=C(Cc1cccc([N+](=O)[O-])c1)Nc1ccc(C(=O)N2CCCCC2)cc1	x	16.8	x	0.0	0.4	-5.5	-10.2	x
O=C(Nc1cccc(C(F)(F)F)c1)C(=O)N1CCCCC1	i	u	-15.9	-16.7	7.5	0.8	-5.3	10.7
O=C(CN1C(=O)c2ccccc2C1=O)Nc1nnc(C2CCCO2)s1 (centres undefined)	i	x	-8.4	x	3.0	1.9	5.9	-3.4
CC(=O)c1ccc(OCC(=O)Nc2ccccc2C(=O)NC2CC2)cc1	i	-10.3	-9.7	1.5	-0.1	-0.7	-7.9	0.9
O=C(c1ccc(F)cc1)C1CCN(C(=O)N2CCOCC2)CC1	i	-91.2	-10.4	-15.1	-4.7	0.2	-8.6	1.4
CCn1nc(C(=O)OCC(=O)NC(C)C)c2ccccc2c1=O	i	-7.1	7.6	x	2.3	6.8	9.2	-5.5
O=C(NC(=S)Nc1ccc(N2CCCCC2)cc1)c1cccs1	i	-239.5	-10.3	-33.8	-1.0	-5.5	26.3	-5.5
